CHT inh = inhibitors of human choline transporter CHT | 310,000 tested, 0.86% active | B-score at 10 µM | AID 488975, 2010 | CHT-expressing cells, membrane potential dye, choline response; active compounds read low;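 active means B-score over 3 SD under the library average, and starting fluorescence ratio not unusually high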;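 further: choline stimulus applied at its EC90 after an EC20 pre-addition; B-score computed on integrated fluorescence ratio after choline addition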
Target sequence (Q9GZV3 whole entry, looked up): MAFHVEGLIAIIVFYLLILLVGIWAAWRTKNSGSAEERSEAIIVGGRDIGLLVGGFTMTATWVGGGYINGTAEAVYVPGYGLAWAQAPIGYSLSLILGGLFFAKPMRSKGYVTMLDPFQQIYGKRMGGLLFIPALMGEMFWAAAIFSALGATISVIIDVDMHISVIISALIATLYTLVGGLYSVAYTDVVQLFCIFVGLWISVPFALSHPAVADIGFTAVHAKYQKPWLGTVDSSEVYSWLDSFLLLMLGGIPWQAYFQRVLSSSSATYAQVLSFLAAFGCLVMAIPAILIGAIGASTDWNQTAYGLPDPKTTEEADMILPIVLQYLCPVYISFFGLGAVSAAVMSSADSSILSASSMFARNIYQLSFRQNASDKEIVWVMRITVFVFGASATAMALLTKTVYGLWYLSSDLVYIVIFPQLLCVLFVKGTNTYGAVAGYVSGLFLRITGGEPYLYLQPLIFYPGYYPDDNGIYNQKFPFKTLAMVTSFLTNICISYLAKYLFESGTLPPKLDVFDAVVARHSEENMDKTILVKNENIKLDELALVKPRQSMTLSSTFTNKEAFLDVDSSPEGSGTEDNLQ
Calls only; i = inactive. The list is partial, and most or all hits are left out here.

SMILES | CHT inh
Cc1cc(-c2cc(-c3ccccc3)on2)nc(NC2CCCC2)n1 | i
C/C=C/C=N/Nc1nc(C)cc(=O)[nH]1 | i
CCc1ccc2[nH]c(=O)c(CN(CCN(C)C)C(=O)Nc3ccccc3OC)cc2c1 | i
Cc1c(C(=O)N(C)CCc2cnn(C)c2)oc2c(F)cccc12 | i
CCC(C(=O)Nc1cc(Cl)c(OC)cc1OC)c1ccccc1 (stereo not given) | i
Cc1ccc(/C=C/C(=O)N2CCN(S(=O)(=O)c3c(C)c(C)cc(C)c3C)CC2)o1 | i
O=C(CNc1ccccc1)c1ccc([N+](=O)[O-])cc1 | i
COc1nc(Oc2ccc(C(=O)O)cc2)nc(Oc2ccc(C(=O)O)cc2)n1 | i
O=C(CSc1nnnn1-c1ccc2c(c1)OCO2)NCc1ccccc1 | i
CCC(=O)N1c2ccccc2C(N(C(=O)CC)c2ccccc2)CC1C (stereo not given) | i
CN1CCN(Cc2c(C(=O)N3CCc4ccccc4C3)nc3ccc(Cl)cn23)CC1 | i
COc1ccccc1NC(=O)N1CCc2[nH]c3ccc(Cl)cc3c2C1 | i
COc1cc(C(=S)N2CCOCC2)cc(OC)c1OC(=O)c1ccc([N+](=O)[O-])cc1[N+](=O)[O-] | i
O=C(NC(C(=O)NCCN1CCOCC1)C12CC3CC(CC(C3)C1)C2)C1CCCCC1 (stereo not given) | i
CC(=O)Nc1ccc(NC(=O)COC(=O)[C@@H](NC(=O)c2ccc(F)cc2)C(C)C)cc1 | i
O=C(c1cccc(S(=O)(=O)N2CCCCC2)c1)N1CCc2ccccc21 | i
Cc1ccc(CC(=O)Nc2ccc(Cl)cn2)cc1 | i
CCC(=O)Nc1ccc(N2CCN(Cc3ccccc3F)CC2)cc1 | i
COc1ccc2c(C)cc(C)nc2n1 | i
CC1CC(C)(C)NC(=S)S1 (stereo not given) | i
C#CCn1c(=NC(=O)c2ccc(Br)s2)sc2cccc(OC)c21 | i
Cc1cc(C(=O)NC2CCCC2)on1 | i
O=C(NCc1cccc(F)c1)c1cccc(OC2CCN(C(=O)C3CC3)CC2)c1 | i
CC(C)(C)NC(=O)NCC1CCCC1NC(=O)NC(C)(C)C (stereo not given) | i
CCCCN(C)Cc1c(C)[nH]c2ccccc2c1=O | i
O=C(CCCCCCC(=O)c1ccccc1)c1ccccc1 | i
COc1cc2c(cc1OC)C(c1ccccc1)N(C(=O)c1ccccc1F)CC2 (stereo not given) | i
O=C(c1ccc(Cl)cc1)N1CCCCC(Cl)C1=O (stereo not given) | i
O=C(NCc1ccccn1)C1CCCN(S(=O)(=O)c2ccccc2)C1 (stereo not given) | i
COc1ccc(/C=N/Nc2nc(-c3cccc(S(=O)(=O)N4CCCC4)c3)cs2)cc1OC | i

(listing goes on)
SMILES | CHT inh
Nc1ncnc2c1ncn2CCNCCc1ccccc1 | i
COc1ccc(-c2csc(NC(=O)COc3ccc(N(C)S(=O)(=O)c4ccc(C)cc4)cc3)n2)cc1 | i
Cn1c(CSCc2ccc(F)cc2)nnc1SCC(=O)N1CCN(c2ccccc2)CC1 | i
CCc1nc(SCC(=O)NCc2ccco2)c2c(=O)n(C)c(=O)n(C)c2n1 | i
Nc1nonc1-n1nnc(C(=O)N/N=C/c2ccc3c(c2)OCO3)c1CSc1ccccc1 | i
CC1CC(CN)CC(CO)C1 (stereo not given) | i
C=CCN(C(=O)CNS(=O)(=O)c1ccccc1)C(C(=O)NCCOC)c1ccncc1 (stereo not given) | i
CSc1ccccc1NC(=O)c1ccc2c(c1)CCN2S(C)(=O)=O | i
Cc1cccc(-n2c(C)cc(C(=O)NC3CCCCC3)c2C)c1 | i
Fc1ccc(/C=N/NC(=S)Nc2ccc(Cl)cc2Cl)cc1 | i
CCCOc1ccc(Cn2c(O)cc(=O)[nH]c2=O)cc1 | i
Cn1c(=O)oc2cc(S(=O)(=O)N3CCN(c4cccc(Cl)c4)CC3)ccc21 | i
CCOc1cc(CNCc2ccccn2)ccc1OCC(=O)NC1CCCCC1 | i
O=C(CN1CCN(Cc2ccccc2Cl)CC1)N/N=C/C=C/c1ccco1 | i
COc1ccc(/C=C/C(=O)Oc2cccc(/C=N/NC(=O)c3cccc(F)c3)c2)cc1 | i
CC1CN(C(=S)Nc2cccc(Cl)c2Cl)CC(C)O1 (stereo not given) | i
O=C(CS(=O)c1cccc(Cl)c1)Nc1ccccc1Cl (stereo not given) | i
C=CCNC(=O)COC(=O)C1CCN(S(=O)(=O)c2ccc3c(c2)OCCO3)CC1 | i
COc1cccc(C(=O)Nc2ccc3ccccc3c2)c1 | i
C=C(C)Cn1c(SCCCO)nc2c1c(=O)[nH]c(=O)n2C | i
Fc1ccc(-n2nnc(-c3cnc4ccccc4c3)n2)cc1 | i
COc1cc2c(=O)n(CCC(=O)NCC3CCCO3)c(=O)n(CC(=O)Nc3ccc(C)cc3C)c2cc1OC (stereo not given) | i
CCc1ccc(CN2CCC(C(=O)Nc3cccc(-c4nnc(C)s4)c3)CC2)o1 | i
CCN(Cc1ccccc1)C(=O)C1CCN(C(=O)Nc2ccccc2)CC1 | i
CC1CCC(=NNc2ccc(C(F)(F)F)cc2[N+](=O)[O-])CC1 (stereo not given) | i
Cc1cc(N2CCN(C)CC2)ccc1NC(=O)c1c2c(nc3ccccc13)CCN(Cc1ccccc1)C2 | i
Cc1ccc(C(=O)N2CCC(n3nccc3NC(=O)C3CCOC3)CC2)cc1 (stereo not given) | i
O=C1CN(C(=O)c2ccc(Br)o2)C(c2ccc(F)cc2)c2cc(Cl)ccc2N1 (stereo not given) | i
COc1ccc(OC)c(S(=O)(=O)NCCCn2ccnc2)c1 | i
CCOC(=O)C1CCCN(S(=O)(=O)c2ccc(Cl)nc2)C1 (stereo not given) | i

Following part:
SMILES | CHT inh
CCc1nnc(NC(=O)c2cccs2)s1 | i
CC(=O)Nc1cccc(NC(=O)CCn2cnc3cc(C)c(C)cc32)c1 | i
Cc1ccnc(N2C(=O)c3ccccc3C2Nc2cccc(C)c2C)c1 (stereo not given) | i
COCC1CCN(C(=O)c2cc(COc3cncc(Cl)c3)on2)C1 (stereo not given) | i
O=c1[nH]c2ccccc2nc1-c1ccc(Cl)cc1 | i
Cc1cc(C(=O)NCC(=O)OCC(=O)NCCc2ccccc2)ccc1[N+](=O)[O-] | i
O=C(NCCCNC(=O)c1ccc(-c2cc(Cl)ccc2Cl)o1)c1cnccn1 | i
Cc1ccc(C(C)NC(=O)C2CCCC2)c(C)c1 (stereo not given) | i
Cc1ccc(NC(=O)Nn2cnnc2)c(C)c1 | i
CCOC(=O)C1CCCN(C2CCN(Cc3nc(-c4ccccc4)no3)CC2)C1 (stereo not given) | i
Cc1ccc(C)c2[nH]c(=O)c(CN(Cc3cccnc3)C(=S)NCc3ccco3)cc12 | i
O=C(CCCCCNC(=O)c1ccccc1)N/N=C/c1ccco1 | i
Cc1cc(-c2ccc(Cl)cc2)c2cnn(C(C)C)c2n1 | i
COC(=O)CSC1=C(C#N)C(c2ccccc2F)CC(=O)N1 (stereo not given) | i
CCOC(=O)C(C)Sc1ncc(OC)c(Sc2ccc(Cl)cc2)n1 (stereo not given) | i
Cc1cccc(Cc2nnc(CCC(=O)N3CCCC(CN4CCOCC4)C3)o2)c1 (stereo not given) | i
COc1ccc(OCC(=O)N2CCN(c3nnc(-c4ccc(C)cc4)c4ccccc34)CC2)cc1 | i
CN(C)S(=O)(=O)c1cc(NC(=O)c2ccc(-n3ccnc3)c([N+](=O)[O-])c2)ccc1Cl | i
CCn1ccnc1CN(C)C(=O)C1CCC(=O)N(CCc2cccc(F)c2)C1 (stereo not given) | i
CCOC(=O)N1CCN(C(=O)COC(=O)CNC(=O)c2ccc(Cl)cc2Cl)CC1 | i
CCOC(=O)C1CCCN(CC(O)COCc2ccc3c(c2)OCO3)C1 (stereo not given) | i
CCCC1=C(C(=O)OCC)C(c2cc(Cl)cc(OC)c2OCC(=O)OCC)NC(=O)N1 (stereo not given) | i
CCCCn1c2nc3ccccc3nc2c2c(=O)n(CCC(C)C)cnc21 | i
O=C(COC(=O)c1c(Cl)ccc(Cl)c1Cl)NC1CCS(=O)(=O)C1 (stereo not given) | i
COC(=O)C1=NN(c2ccc(C)cc2)C2C(=O)N(c3ccccc3OC)C(=O)C12 (stereo not given) | i
CC(=O)Oc1ccc(-c2cccc(C(=O)N3CCCCC3)c2)cc1 | i
COc1cc(C(=O)Oc2cccc(/C=N/NC(=O)c3cc(C)[nH]n3)c2)cc(OC)c1OC | i
O=C1CCCc2nc(N3CCN(Cc4ccccc4)CC3)ncc21 | i
COc1cc(/C=C2\N=C(c3ccccc3)OC2=O)ccc1OCc1c(C)no[n+]1[O-] | i
COC(=O)c1ccc(COc2c(F)c(F)cc(F)c2F)o1 | i

3 of these compounds in another layout.
O=C(NCc1cccc(F)c1)c1cccc(OC2CCN(C(=O)C3CC3)CC2)c1
  CHT inh: i
CCN(Cc1ccccc1)C(=O)C1CCN(C(=O)Nc2ccccc2)CC1
  CHT inh: i
CC(C)(C)NC(=O)NCC1CCCC1NC(=O)NC(C)(C)C (stereo not given)
  CHT inh: i

The results go on.
SMILES | CHT inh
CCCNC(=O)COc1ccc2c(=O)c(Oc3ccccc3F)coc2c1 | i
Cc1ccc(C(=O)Nc2ccc(N3CCOCC3)nc2N2CCOCC2)cc1 | i
COc1ccc(N2CCC(CNC(=S)Nc3cccc(OC)c3)C2)cc1 (stereo not given) | i
CCn1cc(S(=O)(=O)Nc2cccnc2)cn1 | i
CCCCn1c(C(C)NC(=O)CCC)nc2ccccc21 (stereo not given) | i
O=C(O)CSc1nc(-c2ccccc2)cc(=O)[nH]1 | i
CC(=O)c1sc(NC(=O)COc2ccc(Cl)cc2Cl)nc1C | i
O=C1NC(c2ccc(Cl)cc2Cl)Oc2ccccc21 (stereo not given) | i
Cc1c(NS(=O)(=O)c2cccc3nsnc23)c(=O)n(-c2ccccc2)n1C | i
CC(OC(=O)c1ccc(NC(=O)CC#N)cc1)C(=O)Nc1ccc2c(c1)OCCO2 (stereo not given) | i
O=C(NC1CCCCCCC1)c1ccco1 | i
CCn1cnc2c1c(=O)n(CC(=O)OC(C)C(N)=O)c(=O)n2Cc1ccccc1 (stereo not given) | i
Cc1cccc(CC(C)NC(=O)c2cc(COc3ccc(C)c(C)c3)on2)n1 (stereo not given) | i
Cc1onc(-c2c(Cl)cccc2Cl)c1C(O)c1ccc(F)cc1 (stereo not given) | i
O=C(CN1CCCCC1)Nc1cccc(Cl)c1 | i
COc1ccc(NC(=O)c2nc(SC)ncc2Cl)cc1 | i
O=C(NN1C(=O)C2CCCCC2C1=O)c1ccco1 (stereo not given) | i
CC(=O)Nc1nc2ccccc2n1Cc1ccccc1C | i
CC(C)(C)NC(=O)c1ccc2c(c1)N(CC(=O)N1CCN(c3ccc(F)cc3)CC1)C(=O)C(C)(C)O2 | i
Cc1ccc(S(=O)(=O)NCC(=O)OCC(=O)NCCc2ccccc2)cc1 | i
Cc1cc(C)c2nc(C)cc(Nc3ccc(C(=O)N4CCOCC4)cc3)c2c1 | i
COc1ccccc1N1CCc2c(C)nc3c(OC)cccc3c21 | i
CC(NC(=O)C(=O)NN=C1CCCCCCC1)c1ccccc1 (stereo not given) | i
CCN(CC(=O)NCc1cccs1)C(=O)CCOc1ccccc1C | i
O=[N+]([O-])c1ccccc1CNC1CCCCCC1 | i
O=C(Cc1n[nH]c(=O)[nH]c1=O)N/N=C/CCc1ccccc1 | i
Cc1ccc2cc(CN(Cc3nnnn3C3CCCCC3)CC3CCCO3)c(=O)[nH]c2c1 (stereo not given) | i
CC(NC(N)=O)C(=O)Nc1ccc(Cl)c(S(=O)(=O)Nc2ccc(Cl)cc2)c1 (stereo not given) | i
CCCCN(C(=O)c1ccc(N(C)S(=O)(=O)c2ccc(C)cc2)cc1)c1c(N)n(CCC)c(=O)[nH]c1=O | i
Cn1cccc1-c1nc2ccc(NC(=O)c3ccc([N+](=O)[O-])cc3)cc2[nH]1 | i

Carrying on.
SMILES | CHT inh
COc1cccc(C(c2c(C)[nH]n(-c3ccccc3)c2=O)c2c(C)[nH]n(-c3ccccc3)c2=O)c1OC | i
O=[N+]([O-])c1ccc(N2CCc3ccccc3C2)nc1 | i
OCc1cn(-c2ccc(Cl)cc2)nn1 | i
COC(=O)c1ccc(C(=O)OC)c(-n2c(=O)c3ccccc3c3ccccc3c2=O)c1 | i
CC(C)(C)c1cc[n+](-c2[nH]c(=O)sc2/C=N/N=C(\[O-])c2ccccc2)cc1 | i
O=C(O)c1ccc2oc(SCC(=O)N3CCCCC3)nc2c1 | i
C=CCN1C(=O)N(c2ccc(F)cc2)C(=O)C1CC(=O)Nc1ccc(Cl)cc1 (stereo not given) | i
O=C(NCCOc1ccccc1)c1ccc2c(c1)OCO2 | i
O=C(CCC1CCCC1)N1CCN(C(=O)c2ccco2)CC1 | i
Clc1ccc(Cl)c(-c2nc(-c3ccncc3)no2)c1 | i
CCCCCOc1ccc(N2C(=O)C(C)CNC2=S)cc1 (stereo not given) | i

Arranged by number of heavy atoms (rising): part of the list above
SMILES | CHT inh
Clc1ccc(Cl)c(-c2nc(-c3ccncc3)no2)c1 | i
CCCCCOc1ccc(N2C(=O)C(C)CNC2=S)cc1 (stereo not given) | i
O=C(CCC1CCCC1)N1CCN(C(=O)c2ccco2)CC1 | i
CC(C)(C)c1cc[n+](-c2[nH]c(=O)sc2/C=N/N=C(\[O-])c2ccccc2)cc1 | i
C=CCN1C(=O)N(c2ccc(F)cc2)C(=O)C1CC(=O)Nc1ccc(Cl)cc1 (stereo not given) | i
COC(=O)c1ccc(C(=O)OC)c(-n2c(=O)c3ccccc3c3ccccc3c2=O)c1 | i

Source: PubChem BioAssay
